Screening data from PubChem BioAssay.
PKD1 kinase inh: inhibitors of human PKD1 kinase; inhibition, %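 (about 10 µM by stock and volumes)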; PKD1 kinase fluorescence polarization assay; Q15139; 200,000 compounds, 0.056% hits;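 active means inhibition of 50% or more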;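 further: controls were vehicle for no effect and a reference inhibitor for full effect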
RGS16-Gao HTS: modulates binding between human RGS16 and Galphao; 220,000 compounds, 0.38% hits; bead-based flow cytometry RGS16-Galphao binding, fluorescence; actives lie on both sides; binding response (% of control), % at 10 µM; AID 1441; O15492+P09471;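 active means below 25% or above 175%, edge rows of some plates excepted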;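 further: Galphao activated by GDP with aluminum fluoride before binding; 100% = wells without compound and 0% = beads without RGS; some results beyond the cut were filed as inactive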
Target sequence (O15492 whole entry, looked up): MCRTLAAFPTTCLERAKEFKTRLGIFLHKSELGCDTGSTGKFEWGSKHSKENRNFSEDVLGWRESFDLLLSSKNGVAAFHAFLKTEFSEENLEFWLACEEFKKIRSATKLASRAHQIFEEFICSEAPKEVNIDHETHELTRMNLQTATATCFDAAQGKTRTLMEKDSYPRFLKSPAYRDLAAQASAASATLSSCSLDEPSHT
Target sequence (P09471 whole entry, looked up): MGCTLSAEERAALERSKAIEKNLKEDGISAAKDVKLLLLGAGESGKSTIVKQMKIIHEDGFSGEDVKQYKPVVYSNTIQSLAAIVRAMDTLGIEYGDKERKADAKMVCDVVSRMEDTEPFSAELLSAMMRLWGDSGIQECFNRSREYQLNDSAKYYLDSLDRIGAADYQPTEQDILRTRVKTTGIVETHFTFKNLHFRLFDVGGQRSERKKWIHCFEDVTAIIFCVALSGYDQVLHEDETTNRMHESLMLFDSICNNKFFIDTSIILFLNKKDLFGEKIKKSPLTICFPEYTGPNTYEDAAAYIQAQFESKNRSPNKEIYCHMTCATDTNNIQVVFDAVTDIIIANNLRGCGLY
GALR2 agonist: GALR2 (human) receptor agonism. 140,000 compounds, 0.48% hits. O43603. activation, %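 (tested at 5 µM)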. GALR2-expressing cells, agonist activation read-out;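 active means above mean plus 3 SD of all compounds, about 5% in these data, not always enough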;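 further: 0% = vehicle buffer wells and 100% = reference agonist at full effect; tested in CHO reporter cells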
Target sequence (O43603 whole entry, looked up): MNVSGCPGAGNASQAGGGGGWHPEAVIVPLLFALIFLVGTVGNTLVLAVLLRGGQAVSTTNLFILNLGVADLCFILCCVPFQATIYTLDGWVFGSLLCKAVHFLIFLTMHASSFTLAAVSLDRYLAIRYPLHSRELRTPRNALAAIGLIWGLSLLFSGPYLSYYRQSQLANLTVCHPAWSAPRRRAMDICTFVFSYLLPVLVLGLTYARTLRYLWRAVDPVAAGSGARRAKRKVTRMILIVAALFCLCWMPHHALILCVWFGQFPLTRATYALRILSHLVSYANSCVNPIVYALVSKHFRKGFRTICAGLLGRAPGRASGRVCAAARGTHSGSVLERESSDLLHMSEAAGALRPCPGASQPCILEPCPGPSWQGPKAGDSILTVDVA
Insulin prom inh: TRM-6 insulin promoter activity inhibition | TRM-6 cells (human fetal islet line), insulin promoter-eGFP reporter, imaging; reporter expression induced with tamoxifen | inhibition, % at 2 µM | 130,000 compounds, 0.9% hits | AID 1273;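 active means inhibition above the mean plus 3 SD, with well images judged a real hit on visual review, cut at about 60% in these data, passing the limit was not always enough; inconclusive means inhibition over the cutoff but images rejected on review; inactive means inhibition not above the cutoff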
HSV augment: increases HSV replication in cells; HSV replication augmentation in cells, fold increase; maximum fold increase; 220,000 compounds, 0.005% hits;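 active means peak rise of 1.5-fold or more in the series; inconclusive means self-fluorescent or not available for retest; tested in PC3 cells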;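 further: first round at 10 µM; read as green reporter fluorescence; hits show the peak of a series up to 25 µM; 1 = signal of infected wells without compound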
Insulin prom inh cell count: second read-out of Insulin prom inh, no call of its own (marks repeat the call); normalized cell count, %; measured here: cell count, toxicity; reference of the scale not given here;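 cells exposed to compound for 48 h; stained nuclei by imaging scaled within each plate; lower means fewer cells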
HSV augment primary fold: further read-out of HSV augment, marked with its call; fold increase; compound at 10 µM; measured here: primary screen fold increase 10 uM; tested in PC3 cells;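 GFP signal in the first replicate; 1 = infected wells without compound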
The depositor's hits bear a star; i = inactive; ? = inconclusive; . = not tested or not shown. Compounds as they come (roughly 1.2% active in at least one column).

A first look (five entries):
SMILES,Insulin prom inh,Insulin prom inh cell count,HSV augment primary fold,RGS16-Gao HTS,GALR2 agonist,PKD1 kinase inh,HSV augment
COc1ccc(CCNC(=O)C2CCN(c3nn4c(=O)cc(C)nc4s3)CC2)cc1OC,.,.,0.88,97,-0.4,-2,i
CCOC(=O)c1c(O)c(O)c(C(=O)OCC)n1-c1ccccc1,.,.,0.93,95,.,.,i
COc1cc2c(cc1NC(=O)CSc1nc3cc(Cl)ccc3s1)oc1ccccc12,45,71,1.1,161,-1.0,-4,i
Cc1cccc(Oc2ccc(C(=O)NC3CCSC3=O)cn2)c1C (stereo not given),55,152,0.94,104,-3.8,9,i
CC(=O)N1CCc2cc(S(=O)(=O)N3c4ccccc4CC3C)ccc21 (stereo not given),-26,77,0.82,97,-2.4,-10,i

The listing, previewed entries included:
SMILES,Insulin prom inh,Insulin prom inh cell count,HSV augment primary fold,RGS16-Gao HTS,GALR2 agonist,PKD1 kinase inh,HSV augment
COc1ccc(CCNC(=O)C2CCN(c3nn4c(=O)cc(C)nc4s3)CC2)cc1OC,.,.,0.88,97,-0.4,-2,i
CCOC(=O)c1c(O)c(O)c(C(=O)OCC)n1-c1ccccc1,.,.,0.93,95,.,.,i
COc1cc2c(cc1NC(=O)CSc1nc3cc(Cl)ccc3s1)oc1ccccc12,45,71,1.1,161,-1.0,-4,i
Cc1cccc(Oc2ccc(C(=O)NC3CCSC3=O)cn2)c1C (stereo not given),55,152,0.94,104,-3.8,9,i
CC(=O)N1CCc2cc(S(=O)(=O)N3c4ccccc4CC3C)ccc21 (stereo not given),-26,77,0.82,97,-2.4,-10,i
Nc1c(C(=O)N/N=C/c2ccccc2Cl)oc2nc(-c3ccccc3)cc(-c3ccco3)c12,.,.,.,97,.,.,?
COc1ccc(-n2c(C)nc(=O)c(-c3ccccc3)c2C)cc1,38,118,0.82,116,-0.6,-3,i
CSc1nc2ccc(S(=O)(=O)N3CCOCC3)cc2s1,19,115,0.83,99,-0.3,-8,i
Cc1ccc(-c2noc(-c3ccccc3C(=O)N3CCCC3)n2)cc1,7,138,0.8,103,-0.2,-6,i
CN(C)c1ccc(/C=N/NC(=O)c2ccccn2)cc1,.,.,0.97,124,.,.,i
CC#CCNCc1ccccc1,12,48,0.95,92,-0.6,2,i
Clc1cc(NCc2cccs2)ccc1N1CCOCC1,.,.,0.98,73,-1.3,-9,i
O=C(Nc1ncn[nH]1)c1cccc(S(=O)(=O)N2CCOCC2)c1,-18,99,0.81,118,.,6,i
O=C(Cc1noc2ccccc12)Nc1ccc(Cl)cc1,7,110,1,108,0.2,-16,i
CCCS/C(N)=N/N=C/c1ccccc1O,41,114,0.89,101,-2.1,-6,i
O=C(CN1CCN(C/C=C/c2ccccc2)CC1)NCc1ccc(Cl)cc1,.,.,0.85,112,.,.,i
CCOC(=O)N1CCN(c2ccc([N+](=O)[O-])cc2F)CC1C (stereo not given),27,147,1,106,0.2,-1,i
O=C(CC1NC(=O)NC1=O)Nc1ccccc1 (stereo not given),25,155,0.93,97,-1.8,-3,i
O=C1CN(C(=O)CCN2CCOCC2)C(c2ccccc2)c2cc(Br)ccc2N1 (stereo not given),-33,100,0.95,110,-0.2,-9,i
COc1cc2c(cc1OC)C1=C(C#N)CN(CC(=O)O)CN1CC2,.,.,.,112,-1.4,-1,.
CCOC(=O)CSc1nc(-c2ccccc2)ns1,-75,124,0.93,98,.,-8,i
CCN=C(NCC)SC1CC(=O)N(c2cccc(OC)c2)C1=O (stereo not given),12,127,0.83,105,-0.3,4,i
Cc1cc(C)cc(C(=O)NCC(=O)OCC(=O)NCc2ccco2)c1,.,.,1.1,90,.,-3,i
COc1ccc(C2C3=C(CC(C)(C)CC3=O)Nc3nc(C)nn32)cc1OC (stereo not given),.,.,0.87,92,.,.,i
Cc1oc2ccc(Br)cc2c(=O)c1-c1nn[nH]n1,12,86,1,111,.,-10,i
Cc1ccc(-n2c(-c3ccccc3)c[nH]c2=S)cc1,.,.,0.89,116,.,3,i
CCSc1nnc([C@@H]2CCCN2C(=O)OC(C)(C)C)o1,21,115,1,107,-4.0,-1,i
CCS(=O)(=O)c1ccc2oc(Nc3cccc(OC)c3)nc2c1,.,.,0.95,100,.,-2,i
Cc1cccc(N(CC(=O)N2CCOCC2)S(C)(=O)=O)c1,-34,28,0.95,103,-1.1,-3,i
CC(=O)Nc1ccc(O)c(-c2nc3ccccc3s2)c1,23,89,0.91,92,.,11,i
CCOC(=O)C1=C(CSc2nnnn2C)N(C)C(=O)NC1c1ccccc1 (stereo not given),-8,69,0.95,110,-1.8,7,i
Fc1cccc(Cl)c1-c1nnc2ccc(N3CCOCC3)nn12,-24,120,0.93,101,1.3,2,i
O=C(NCC1CC1)C1CCCN(S(=O)(=O)c2ccc(-n3cnnn3)cc2)C1 (stereo not given),.,.,0.95,102,-0.7,-3,i
COc1cc(/C=C2/CCCC(C(=O)C(F)(F)F)=C2O)ccc1O,.,.,0.94,97,.,.,i
COc1ccc(CN(C(=O)CO/N=C/c2ccccc2)c2ccccc2C(=O)O)cc1,14,116,0.94,105,-0.6,-12,i
C=CCSc1nnc(NC(=O)CSc2nnc(C)s2)s1,49,40,0.87,100,-2.1,-8,i
O=C(CSc1nnnn1-c1cccc2ccccc12)NC(C(=O)O)(c1ccccc1)c1ccccc1,.,.,1,101,.,-6,i
COc1ccc(NC(=O)CC2C(=O)N(c3cccc(OC)c3)C(=O)N2C(C)C)cc1 (stereo not given),.,.,0.91,93,.,1,i
O=C1NN(c2ccccc2)C(=O)C2C3C=CC(C4CC34)C12 (stereo not given),.,.,1.1,101,-0.9,3,i
CC(C)Oc1ccc(C2c3c(oc4ccccc4c3=O)C(=O)N2CCCN2CCOCC2)cc1 (stereo not given),31,83,1,96,-2.1,-2,i
CCOc1ccc(C2CC(c3cccc(Cl)c3)n3nc(N)nc3N2)cc1 (stereo not given),0,141,1.4,106,-0.5,13,i
COc1ccccc1C(=O)CSc1n[nH]c(N)n1,-13,148,0.96,105,-1.3,1,i
CCN(CC)c1ccc(C2N(C(=O)N3CCOCC3)CCN2S(=O)(=O)c2ccc(C)cc2)cc1 (stereo not given),7,94,1,94,-1.1,-1,i
C=CCN1C(=O)/C(=C/c2ccc(O)cc2)S/C1=N/c1nccs1,0,66,.,105,2.3,7,.
CCOC(=O)Cn1c(=O)oc2cc(S(=O)(=O)Nc3ccc(N(CC)CC)cc3C)ccc21,.,.,1.2,126,-2.3,-1,i
CCN1CCN(CCNC(=O)c2ccc(/C=C3\Sc4ccccc4N(Cc4ccccc4F)C3=O)cc2)CC1,-45,176,0.62,103,.,-2,i
CSc1ccc(Cl)c(C(=O)OCC(=O)Nc2ccccc2OC(F)F)c1,46,150,1,104,-1.5,5,i
CCOC(=O)C(=O)/C(C#N)=C/Nc1ccccc1,3,105,0.91,95,-3.6,-3,i
Cc1cc(Cl)c(S(=O)(=O)N/N=C/c2ccc3c(c2)OCO3)c(Cl)c1,38,129,.,92,-3.2,0,.
O=C(NCc1cccnc1)c1ccc(Cl)c(Cl)c1,5,130,0.92,103,-0.7,-11,i

An excerpt from above, reduced to RGS16-Gao HTS and HSV augment primary fold:
| smiles | RGS16-Gao HTS | HSV augment primary fold |
| --- | --- | --- |
| O=C(NCc1cccnc1)c1ccc(Cl)c(Cl)c1 | 103 | 0.92 |
| CCN(CC)c1ccc(C2N(C(=O)N3CCOCC3)CCN2S(=O)(=O)c2ccc(C)cc2)cc1 (stereo not given) | 94 | 1 |
| CSc1ccc(Cl)c(C(=O)OCC(=O)Nc2ccccc2OC(F)F)c1 | 104 | 1 |
| CCS(=O)(=O)c1ccc2oc(Nc3cccc(OC)c3)nc2c1 | 100 | 0.95 |
| O=C1NN(c2ccccc2)C(=O)C2C3C=CC(C4CC34)C12 (stereo not given) | 101 | 1.1 |
| Cc1cc(Cl)c(S(=O)(=O)N/N=C/c2ccc3c(c2)OCO3)c(Cl)c1 | 92 | . |
| CCSc1nnc([C@@H]2CCCN2C(=O)OC(C)(C)C)o1 | 107 | 1 |

Shown as labelled records: entries from further up
> O=C(NCC1CC1)C1CCCN(S(=O)(=O)c2ccc(-n3cnnn3)cc2)C1 (stereo not given)
  Insulin prom inh: .
  Insulin prom inh cell count: .
  HSV augment primary fold: 0.95
  RGS16-Gao HTS: 102
  GALR2 agonist: -0.7
  PKD1 kinase inh: -3
  HSV augment: i

> CC(=O)Nc1ccc(O)c(-c2nc3ccccc3s2)c1
  Insulin prom inh: 23
  Insulin prom inh cell count: 89
  HSV augment primary fold: 0.91
  RGS16-Gao HTS: 92
  GALR2 agonist: .
  PKD1 kinase inh: 11
  HSV augment: i

(further entries)
SMILES,Insulin prom inh,Insulin prom inh cell count,HSV augment primary fold,RGS16-Gao HTS,GALR2 agonist,PKD1 kinase inh,HSV augment
O=C(NN1C(=O)C2C3C=CC(C3)C2C1=O)c1ccncc1 (stereo not given),.,.,1,101,-0.8,-10,i
COc1ccc(-c2cc(-c3ccc(C)cc3)nc(SCc3nnc(-c4ccccc4)o3)c2C#N)cc1OC,37,95,1,110,-0.2,-8,i
CCCn1nnnc1NCc1cc(Br)ccc1OC,14,106,0.9,100,.,0,i
N#C/C(=C/c1ccc(Cl)cc1)NC(=O)c1ccccc1,0,97,0.91,106,-1.8,-1,i
COC(=O)c1ccc(/C=N/N2CCN(Cc3ccccc3Cl)CC2)cc1,.,.,1.1,100,.,.,i
COc1cc(/C=C2\SC(=S)N(NS(=O)(=O)c3ccccc3)C2=O)ccc1O,.,.,.,107,.,.,?
O=C(Nc1ccc(Br)cc1)C1CCCN1S(=O)(=O)c1cccs1 (stereo not given),-32,98,0.9,111,-1.2,-3,i
COC(=O)c1ccccc1NC(=O)CSc1nnc(C(C)NC(=O)c2ccc(Cl)cc2Cl)n1C (stereo not given),7,47,0.69,110,-0.5,-3,i
Cc1cccc(-c2nnn(C/C(N)=N/O)n2)c1,25,92,1,101,.,0,i
Cc1ccc(-n2cccn2)c([C@@H]2C[C@H]3CN(C)C(=O)[C@]34CCCN24)c1,.,.,0.99,105,.,0,i
CCC(C)(C)NCC(=O)Nc1ccc(OC(F)(F)F)cc1,13,68,0.99,112,-2.1,4,i
COc1ccc(/C=C/C(=O)Oc2ccc(/C=N\NC(=O)c3ccc(F)cc3)cc2)cc1,.,.,1,96,0.3,-14,i
CC(=O)Nc1ccc(C2C(=O)c3ccccc3C2=O)cc1,.,.,1.1,96,.,.,i
CCn1ccnc1CN1CCc2c([nH]c3ccccc23)C1C(C)(C)C (stereo not given),.,.,0.98,107,.,-8,i
CCN(CC)S(=O)(=O)c1ccc(NC(=O)COc2nc3ccccc3nc2N2CCOCC2)cc1,-106,22,0.95,110,-0.3,5,i
CCOC(=O)C1CCCN(Cc2nc(N)nc(Nc3ccc(OC)cc3)n2)C1 (stereo not given),62,85,1,105,-2.0,-3,i
CCCS(=O)(=O)N1CCCC(C(=O)NCCCOC(C)C)C1 (stereo not given),.,.,1,96,-0.8,-11,i
Cc1nn(C)c(C)c1CN(Cc1nc(-c2cc(F)ccc2F)oc1C)C1CC1,.,.,0.98,54,.,2,i
CCC(CC)NC(=O)CC(c1ccccc1)c1ccccc1,.,.,1,112,.,-8,i
